ugtP null kill – kills S. aureus RN4220 lacking UgtP; S. aureus RN4220 ugtP deletion, OD600 growth, 16 h; some inactives read as strong as hits; growth inhibition, % (concentration not given with the values); 330,000 compounds, 0.54% hits;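 active = z-score under -3 and OD600 up to 0.15 on both plates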;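 also: plate controls were untreated wells for no effect and antibiotic for full effect; wells of about 80 µL received 100 nL stock; the first replicate is given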
PrP 5UTR inh – inhibition of PrP 5' UTR reporter expression | cell-based PrP 5' UTR mRNA reporter, plate reader | inhibition, % (no concentration beside the values) | 340,000 compounds, 0.35% hits | AID 488862;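 active = every replicate at 50% or more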;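 also: 0 = median of the neutral control wells; tested in H4 reporter cells; numbers are from one replicate; inactives centre near -14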
RN4220 kill – S. aureus RN4220 growth inhibition; OD600, 16 h; inhibition, % (test concentration not listed); 330,000 compounds, 0.33% hits;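 active = z-score of -3 or lower and OD600 up to 0.18 on both plates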;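 also: plate controls were untreated cells for no effect and reference antibiotic for full effect; stock transfer was 100 nL into about 80 µL; one replicate is shown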
BJeLR lethal – kills HRASV12-expressing BJeLR cells; BJeLR (HRASV12) viability, CellTiter-Glo ATP luminescence, 48 h; reference of the scale not given here; inhibition, % (no concentration beside the values); 300,000 compounds, 0.17% hits;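 active = replicate mean above 50%; inconclusive = above 50% but judged a plate artefact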;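 also: 50 nL library stock added to about 25 µL; numbers are from one replicate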
Mtb hypoxia inh – reduces hypoxia-regulated biosensor signal in M. tuberculosis; M. tuberculosis hypoxia-regulated fluorescent reporter, fluorescence; fluorescence inhibition, % (test concentration not listed); 300,000 compounds, 0.1% hits; AID 1159583;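 active = 35 to 45% if threefold the growth effect, above 45% if 1.5-fold the growth effect; inactive = the rest, general growth blockers included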;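 also: wells of about 50 µL received 100 nL stock; 0% = vehicle wells and 100% = reference inhibitor wells; whole bacteria with a GFP reporter of the hypoxia response; strong numbers were not always called active; many hits fall short of the cut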
Bead autofluor – counter-screen for toxin protease inhibitors: compound fluorescence | fluorescence intensity (no concentration beside the values) | compound autofluorescence counterscreen, microsphere flow cytometry; hits give high values | 360,000 compounds, 3.1% hits | AID 624483;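 active = at least 3 SD above the mean of all compounds, about 16000 in these data; inconclusive = too few beads counted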;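 also: 100 nL of 1 mM stock went into each well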
Mtb hypoxia inh growth – further read-out of Mtb hypoxia inh, marked with its call; growth inhibition, %; measured here: M. tuberculosis growth (absorbance);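 0% = vehicle and 100% = reference antibiotic; read after six days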
An asterisk follows results filed as active; ? = inconclusive; · = no result given.

Molecule | ugtP null kill | PrP 5UTR inh | RN4220 kill | BJeLR lethal | Mtb hypoxia inh | Mtb hypoxia inh growth | Bead autofluor
O=C(c1nc2ccccc2[nH]1)c1ccccc1[N+](=O)[O-] | 0 | -19 | 8.2 | -11 | 10 | 1 | 3683
Oc1ccccc1C1=NN(c2ccccc2)C(c2ccccc2)C1 (configuration not stated) | 100* | -35 | 94* | 5 | -8 | -2 | 3804
COc1ccc(C2(C(=O)NCCc3ccccc3)CCCC2)cc1OC | -2 | · | 4.4 | 3 | 13 | 10 | 3740
CN(C)c1nc(Nn2cnnc2)nc(N(C)C)n1 | 0 | 3 | 2.4 | 1 | 13 | -6 | 3549
CC(C)(C)CC(=O)NCc1ccc(F)cc1 | 3 | -3 | 1.6 | -1 | · | · | 4541
O=S(=O)(Nc1nc2c(s1)CCCC2)c1ccc2ccccc2c1 | · | -20 | · | 4 | · | · | ?
Cc1nc2ccccc2c(=O)n1-c1ccccn1 | -9 | -1 | -0.2 | 4 | -3 | -1 | 2490
CCOc1ccc(N(C)C(=O)CCc2nnc3ccc(NCc4ccco4)nn23)cc1 | -4 | -4 | 3.2 | 6 | 11 | 0 | 4972
CN1CCN(CC(=O)NN2CC(=O)N(c3ccc(F)cc3)CC2=O)CC1 | -3 | -24 | 5.8 | 12 | 3 | -1 | 6202
CCOC(=O)NC(=O)CSc1nc2ccc(C)cc2[nH]1 | 11 | 0 | 8.1 | 2 | 2 | -2 | 3280
CCOC(=O)c1cncc(C(=O)O)c1 | -9 | -15 | -2.5 | 10 | · | · | 2562
CC(=O)Nc1cccc(NC(=O)CS(=O)(=O)c2cn(CC(=O)N3CCCC3)c3ccccc23)c1 | 6 | 3 | 2.3 | -1 | 2 | 2 | 5702

Three compounds out of the list, ordered by length of the SMILES, lowest first.
Molecule | ugtP null kill | PrP 5UTR inh | RN4220 kill | BJeLR lethal | Mtb hypoxia inh | Mtb hypoxia inh growth | Bead autofluor
CCOC(=O)c1cncc(C(=O)O)c1 | -9 | -15 | -2.5 | 10 | · | · | 2562
O=S(=O)(Nc1nc2c(s1)CCCC2)c1ccc2ccccc2c1 | · | -20 | · | 4 | · | · | ?
O=C(c1nc2ccccc2[nH]1)c1ccccc1[N+](=O)[O-] | 0 | -19 | 8.2 | -11 | 10 | 1 | 3683

Single records, from the list above. Order of screens: ugtP null kill, PrP 5UTR inh, RN4220 kill, BJeLR lethal, Mtb hypoxia inh, Mtb hypoxia inh growth, Bead autofluor
`O=S(=O)(Nc1nc2c(s1)CCCC2)c1ccc2ccccc2c1` as listed: ·, -20, ·, 4, ·, ·, ?
`CN(C)c1nc(Nn2cnnc2)nc(N(C)C)n1` as listed: 0, 3, 2.4, 1, 13, -6, 3549
`COc1ccc(C2(C(=O)NCCc3ccccc3)CCCC2)cc1OC` as listed: -2, ·, 4.4, 3, 13, 10, 3740
`CC(C)(C)CC(=O)NCc1ccc(F)cc1` as listed: 3, -3, 1.6, -1, ·, ·, 4541

Going on with the list.
Molecule | ugtP null kill | PrP 5UTR inh | RN4220 kill | BJeLR lethal | Mtb hypoxia inh | Mtb hypoxia inh growth | Bead autofluor
CC(=O)NC1(C(F)(F)F)C(=O)NC(C)=C1C#N (configuration not stated) | 0 | 8 | -3.9 | -13 | 6 | 7 | 2979
CN(CC(=O)Nc1cccc(F)c1)C(=O)c1cccc2ccccc12 | 4 | -8 | 1.8 | · | -1 | 9 | 6720
CC1(C)C(C=C(Cl)Cl)C1C(=O)OCc1cccc(Oc2ccccc2)c1 (configuration not stated) | 69 | -16 | -10 | · | 3 | 3 | 5606
O=C(CSC1CC(=O)N(CCc2ccccc2)C1=O)Nc1cccc(Cl)c1 (configuration not stated) | 71 | -12 | -0.2 | -7 | 16 | -1 | 9250
COc1ccc(NC(=O)c2cc3ccccn3n2)cc1 | 5 | -11 | 5.2 | 3 | -4 | -5 | 4421
COc1ccc(OC(C)C(=O)NC2CCCCCCC2)cc1 (configuration not stated) | -6 | -11 | 5.0 | 8 | 3 | 1 | 4905
CCOC(=O)C(C(=O)NCc1ccc(F)cc1)c1ncc(C(F)(F)F)cc1Cl (configuration not stated) | -2 | -23 | -3.2 | -4 | · | · | 2707
CCN(CC)S(=O)(=O)c1cc([N+](=O)[O-])ccc1NNC(=O)Nc1ccc(F)cc1 | 34 | -7 | 1.5 | -2 | 1 | -5 | ?
CCCS(=O)(=O)N1CCCC(C(=O)N2CCC(Cc3ccccc3)CC2)C1 (configuration not stated) | 2 | -9 | 1.5 | -3 | 7 | 7 | 2914
CC1CCCCN1CCNC(=O)C1CCCN(c2ncnc3c2nc2n3CCCCC2)C1 (configuration not stated) | 10 | -22 | 6.0 | 6 | 10 | -3 | 5861
Nc1nonc1-c1nc2ccccc2[nH]1 | 6 | -14 | 9.9 | -1 | -5 | -3 | 3277
Cc1cc(C)n(CC(=O)n2c3c(c4ccccc42)CCCC3)n1 | 7 | 4 | 0.0 | -3 | 12 | 3 | 3885
CCOC(=O)c1ccccc1NC(=O)CSc1nncn1C | 3 | -7 | 6.5 | 4 | 5 | -1 | 4626
COc1ccc(S(=O)(=O)N2CCN(Cc3cc4c(cc3Br)OCCO4)CC2)cc1 | 1 | -25 | -1.3 | · | 4 | -3 | 3053
CC(=O)C1=C(O)C(=O)N(c2ccccn2)C1c1ccc(C)cc1 (configuration not stated) | 6 | 3 | 1.4 | 1 | 0 | 11 | 3762
O=S(=O)(c1ccccc1)n1ccc2cccnc21 | 1 | -31 | -1.7 | 11 | · | · | 4141
COc1ccccc1-n1c(=O)[nH]c2c(C(N)=O)nc(-c3cccnc3)nc21 | -4 | -1 | 1.2 | -4 | -1 | 3 | 4256
Cc1ccc(C(=O)c2coc3ccc(O)c(CN4CCN(C)CC4)c23)cc1 | -4 | -18 | -6.7 | · | -10 | 4 | 9339
CCOc1ccc(NC(=O)c2ccc3c(c2)OCCO3)cc1S(=O)(=O)N(CC)CC | -3 | -20 | 7.9 | · | -3 | 3 | 4003
O=C(OC1CCCCC1=O)c1cccc(S(=O)(=O)NCc2ccccc2)c1 (configuration not stated) | 5 | -18 | 8.7 | 2 | 2 | 5 | 3084
O=[N+]([O-])c1cc(S(=O)(=O)N2CCCC2)ccc1OCCOc1ccccc1 | 3 | -6 | 4.3 | · | -1 | 7 | 4008
O=C1CC(c2ccccc2)CC(O)=C1C=NC1CCCCCC1 (configuration not stated) | 1 | -46 | -1.5 | -2 | 5 | 0 | 10019
O=C1[C@@H]2Cc3c([nH]c4ccccc34)C(c3ccc(Cl)cc3)N2C(=O)CN1CCO (some centres not stated) | -2 | -5 | 6.2 | 5 | -11 | -3 | 3574
C/C(=C\c1cccc(Cl)c1Cl)C(=O)c1c(C)cc(C)[nH]c1=O | -9 | -18 | 0.4 | 2 | -4 | 1 | 3804
COCCCNC(=O)Cc1ccccc1OC | 2 | -8 | 2.9 | -7 | 14 | 11 | 2424
CC(C)C(=O)Nc1ccc(NC(=O)c2cccs2)cn1 | 10 | -31 | 1.7 | 2 | · | · | 3305
O=C(COC(=O)c1ccc(NS(=O)(=O)c2cccs2)cc1)Nc1nc2c(F)c(F)c(F)cc2s1 | 7 | -17 | 7.9 | · | 10 | 2 | 4014
Cc1ccc(SCC(=O)OCC(=O)N(CC(C)C)c2c(N)n(Cc3ccccc3)c(=O)[nH]c2=O)c(C)c1 | 13 | -25 | 13 | 5 | -1 | -1 | 5485
N#CCc1ccc(C(=O)c2ccccc2)s1 | -8 | -31 | 1.0 | 3 | · | · | 2182
O=C(NC1CCN(Cc2ccccc2Cl)CC1)c1ccccc1 | -1 | -2 | 1.6 | 1 | -14 | -12 | 3201
CCc1ccc(C2CC=C(C(=O)O)C(c3ccc(F)cc3)N2S(=O)(=O)c2ccc(C)cc2)cc1 (configuration not stated) | 38 | · | 13 | · | 10 | 10 | ·
O=C1N=C(N2CCN(c3ccccc3)CC2)SC1Cc1ccccc1 (configuration not stated) | 11 | -20 | 6.0 | -2 | 9 | -10 | 1939
COc1ccc(C)cc1S(=O)(=O)N1CCN(c2ccccc2)CC1 | 9 | -11 | 1.7 | -11 | 0 | 12 | 4019
COc1cccc(NC(=O)/C=C/c2ccccc2[N+](=O)[O-])c1 | -10 | -101 | 7.8 | 1 | 11 | 7 | 2345
Cc1cccc2c1CCCC2=O | 1 | 11 | 1.8 | · | -6 | 0 | 3898
CCOc1ccc(C(C)C)cc1S(=O)(=O)n1ccnc1C | -1 | -13 | 3.8 | 6 | 5 | 6 | 3675
CC(C)(C)c1ccc(C(=O)Nc2ccc(C(=O)N3CCOCC3)cc2)cc1 | 4 | -9 | 0.6 | -21 | 0 | 3 | 5442
COc1ccccc1C(=O)NCC(=O)NNC(=O)c1cccs1 | 3 | 3 | 3.6 | · | 6 | 8 | 3674
Cc1ccc2nsnc2c1S(=O)(=O)NC1CC1 | 2 | -11 | 6.2 | 3 | -1 | 3 | 10265
CC(C)(C)CC(C)(C)SSc1n[nH]c(=S)s1 | 17 | -23 | -0.1 | · | 13 | 12 | 3819
Cc1cccc(NC(=O)CN(C)C(=O)/C=C/c2ccccc2)c1C | 3 | -17 | 3.9 | · | -11 | -3 | ?
COC(=O)C1=C(C)N(Cc2ccccc2)C(=O)N[C@H]1c1cccc(F)c1 | · | -13 | · | 1 | · | · | 3388
NC(=O)C1(N2CCCCC2)CCN(C(=S)Nc2ccc(Cl)cc2)CC1 | -2 | -18 | -0.1 | · | -1 | 2 | 10300
Cc1ccc(CC(=O)NCCc2ccc(S(N)(=O)=O)cc2)cc1 | 4 | -37 | 4.8 | 2 | -2 | 2 | 3648
CC1(C)CC(=O)C2=C(C1)NC(SCC(=O)Nc1ccccc1)=C(C#N)C21CCCCC1 | -1 | -54 | -11 | -5 | · | · | 4245
O=C(/C=C/Nc1ccc([N+](=O)[O-])cc1Br)c1cccc2ccccc12 | 6 | -51 | 0.9 | 7 | 3 | 6 | 2150
O=S(=O)(NCCC1=CCCCC1)c1cccc2nsnc12 | 3 | -9 | 6.5 | 3 | 15 | 15 | 9913
Cc1ccc(-c2csc3nc(C)n(-n4cccc4)c(=O)c23)o1 | 0 | -19 | -14 | 3 | 3 | 4 | 2657
CCc1ccc(-c2cc(C(=O)O)c3ccccc3n2)s1 | -8 | -5 | 9.8 | 5 | 11 | 4 | 3662
Cc1ccc2[nH]c(=O)c(-c3noc(C(C)C)n3)cc2c1 | 16 | -7 | 36 | -2 | -1 | 1 | 5559
O=C(O)c1ccc(S(=O)(=O)NCc2ccc3c(c2)OCO3)cc1 | -2 | -22 | 1.8 | -10 | 0 | -2 | 4117
O=C(NCc1ccc(Cl)s1)c1cc(COc2c(F)cccc2F)on1 | -9 | 0 | -4.8 | 1 | -2 | 10 | 4586
Cc1c(Oc2ccc(C(F)(F)F)cc2[N+](=O)[O-])ccc2c3c(c(=O)oc12)CCC3 | 3 | -10 | 5.7 | 7 | 9 | 6 | 2531
CSc1nc(NC(C)=O)nc(C)c1Cl | -6 | -14 | -15 | -1 | 5 | 12 | 2564
CCN(CC)S(=O)(=O)c1ccc2[nH]cc(C(=O)NCCC3=CCCCC3)c(=O)c2c1 | -6 | -1 | -9.1 | 11 | 13 | 2 | 2818
CC(C)C(NC(=O)c1ccccc1F)C(=O)NCC(c1ccco1)N1CCCCC1 (configuration not stated) | 0 | -6 | 0.4 | · | -2 | 2 | 3913
COC(=O)CC1C(=O)NCCN1C(=O)CSc1nc2ccc([N+](=O)[O-])cc2s1 (configuration not stated) | -1 | -12 | 1.1 | -10 | -10 | -1 | 4368
Cc1nc2cc(NC(=O)N3CCN(c4ccccn4)CC3)ccc2o1 | 2 | -24 | -3.6 | 1 | 14 | 6 | 6579
COc1ccc(C(C(=O)NC2CCCC2)N(Cc2ccc(F)cc2)C(=O)c2ccn[nH]2)cc1OC (configuration not stated) | 1 | -27 | 3.5 | 2 | 8 | 5 | 7756
Cc1nnc(SCC(=O)Nc2cc(C(F)(F)F)ccc2N2CCOCC2)o1 | -13 | -49 | 6.8 | 0 | 9 | 6 | 8096
CCN(CC)C(=O)C1CCCN(C/C(C)=C/c2ccccc2)C1 (configuration not stated) | 1 | · | -4.3 | -4 | 17 | 1 | 8692
FC(F)(F)c1nnc(N2CCN(c3ccc(Cl)cc3)CC2)s1 | 3 | -10 | 2.3 | -6 | 6 | 15 | 3534

From PubChem
